Source: PubChem BioAssay
gsp antag: antagonists of gsp mutant (McCune-Albright syndrome). gsp-mutant cells, cAMP HTRF, 30 min; control for the full effect not named in the record. Potency, µM (highest dose often 76.9 µM), without a hit: top-dose activity change, negative = inhibition, usual class: inhibitors. 340,000 compounds, 0.4% hits; active = falling curve of any shape with a large fitted effect; inconclusive = falling curve, mostly with a smaller effect; inactive = flat or rising curve; cell line not stated here;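 further: intracellular cAMP measured with PDE inhibitor Ro 20-1724 present during compound exposure; potency means the concentration at half of the fitted maximal effect; on the % scale 0 is the no-effect control and ±100 the full control effect; nearly all actives have a fitted effect of over 65% in size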
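Measurement of cellular cAMP by homogeneous time-resolved fluorescence following a 30 min compound exposure at 37C. The PDE inhibitor […] was present throughout; the assay buffer was DPBS with 0.05% BSA and 0.005% Tween 20.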
CtBP-E1A blk: inhibitors of CtBP/E1A interaction; 340,000 compounds, 0.49% hits; AlphaScreen GST-E1A/His-CtBP binding, 1536-well; stronger effect = lower value; control for the full effect not named in the record; AID 651724; activity change, % (concentration not given with the values); in the data active means activity change below about -65%; inconclusive means about -30% to -65%; inactive means above about -30%; further: on the % scale 0 is the no-effect control and ±100 the full control effect
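Homogeneous bead-based format: GST-tagged E1A captured on glutathione donor beads, His-tagged CtBP on nickel acceptor beads; compounds precede bead addition by 2 h at 37 °C.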
TRPV1 potentiator: enhances activation of the human vanilloid receptor TRPV1. TRPV1-expressing cells, Fluo-8 calcium influx, capsaicin EC20 potentiation; host cell line not named in the record; control for the full effect not named in the record. 320,000 compounds, 0.02% hits. potentiation, % at 8.33 µM. Q8NER1; active means potentiation above 80%; inconclusive means 30% to 80%; inactive means below 30%; further: 0% is about no effect
Target sequence (Q8NER1 whole entry, looked up): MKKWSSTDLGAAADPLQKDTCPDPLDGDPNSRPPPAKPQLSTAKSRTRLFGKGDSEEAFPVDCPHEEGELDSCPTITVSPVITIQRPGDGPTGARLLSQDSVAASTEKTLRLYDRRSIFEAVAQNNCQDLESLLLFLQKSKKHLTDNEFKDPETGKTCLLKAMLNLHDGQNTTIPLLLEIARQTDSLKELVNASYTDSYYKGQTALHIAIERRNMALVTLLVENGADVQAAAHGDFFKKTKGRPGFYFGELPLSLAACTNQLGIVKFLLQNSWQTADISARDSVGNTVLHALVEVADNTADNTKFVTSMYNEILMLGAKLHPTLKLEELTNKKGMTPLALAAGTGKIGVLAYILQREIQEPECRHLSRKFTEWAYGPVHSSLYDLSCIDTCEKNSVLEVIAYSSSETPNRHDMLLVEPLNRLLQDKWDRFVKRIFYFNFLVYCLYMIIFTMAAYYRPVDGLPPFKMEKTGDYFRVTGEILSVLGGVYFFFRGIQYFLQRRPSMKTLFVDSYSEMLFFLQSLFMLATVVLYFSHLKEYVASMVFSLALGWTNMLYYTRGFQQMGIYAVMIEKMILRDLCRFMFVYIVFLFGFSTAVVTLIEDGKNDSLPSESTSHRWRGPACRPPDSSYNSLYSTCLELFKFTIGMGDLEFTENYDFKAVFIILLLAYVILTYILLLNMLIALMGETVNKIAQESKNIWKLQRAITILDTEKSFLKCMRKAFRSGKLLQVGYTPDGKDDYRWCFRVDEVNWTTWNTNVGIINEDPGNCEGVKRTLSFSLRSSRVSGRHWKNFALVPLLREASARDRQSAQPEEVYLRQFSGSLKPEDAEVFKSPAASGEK
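Fluo-8 calcium influx in TRPV1-expressing cells, kinetic read (ex 480/em 520 nm). Compound added and read 3 min for agonist activity, followed by capsaicin at EC20 final and 2 min further read for enhancement.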
Menin-MLL FL inh: menin-MLL binding inhibition, fluorescein peptide; FP activity change, % at 61.4 µM; AID 1766; Fluorescence polarization, fluorescein-MLL peptide displacement from menin; 290,000 tested, under 10 active; inconclusive = falling polarisation curve, or a change in total fluorescence; inactive = total fluorescence flat and polarisation flat or rising; no compound was filed as active; the % refers to the polarisation; negative = inhibition;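 further: % of control where 0% means no effect; inhibitors lower the polarisation; unlabelled MLL peptide was the positive control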
ClpP mod: qHTS Assay for Activators of ClpP | purified B. subtilis ClpP, FRET peptide cleavage, 20 min | AID 651965, 2013 | 340,000 compounds, 1.9% hits | Potency, µM (series often up to 57.5 µM), for inactives: at the highest dose activity change, negative = active; active = well fitted falling curve with a large enough effect; inconclusive = small, poorly fitted or top-dose-only effect; inactive = no such curve, though single readings can be large or run the other way; further: potency means the concentration at half of the fitted maximal effect; the source files actives as falling curves though it sought activators and does not explain the sign; nearly all actives have a fitted effect of over 65% in size; many hits overshoot -100%
Target sequence (P80244 whole entry, looked up): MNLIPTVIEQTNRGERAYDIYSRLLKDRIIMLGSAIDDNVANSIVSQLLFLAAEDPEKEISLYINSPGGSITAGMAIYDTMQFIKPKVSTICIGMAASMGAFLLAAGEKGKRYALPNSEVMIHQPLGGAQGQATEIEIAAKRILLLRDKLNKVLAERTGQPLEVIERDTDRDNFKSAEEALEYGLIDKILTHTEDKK
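FRET quenching reversal measured ClpP activation: 10 microg/mL B. subtilis ClpP at pH 8 with the FRET-FV decapeptide, read at 430 nm after 320 nm excitation. The 20-min minus 0-min signal was scaled between DMSO/no-enzyme wells and ADEP (5.8 microM final).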
Sfp PPTase inh: inhibitors of Bacillus subtilis Sfp phosphopantetheinyl transferase; Potency, µM, for the others: max response, negative = inhibition, actives largely listed as inhibitors; 310,000 compounds, 3.5% hits; Biochemical Sfp PPTase activity, qHTS; AID 1490; Q9F4F7; active means well fitted inhibition curve with a large enough effect; inconclusive means small, poorly fitted or top-dose-only effect, or another doubt; inactive means no such curve, though single readings can be large or run the other way;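 further: the enzyme is Sfp with the accession as filed and its product quenches rhodamine fluorescence; potency means the concentration at half of the fitted maximal effect; 0% = enzyme reaction without inhibitor and -100% = no enzyme wells; top concentration of the series not given in the record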
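Fluorescence-quenching assay: 15 nM Sfp-PPTase preincubated 15 min at room temperature with compound, then 5 uM rhodamine-CoA and 12.5 uM BHQ-2-labelled YbbR peptide added. Fluorescence (ex 525/em 598 nm) read at start and after 30 min; difference gives rate.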
gsp ag: agonists of gsp mutant (McCune-Albright syndrome); gsp mutant cells, cAMP HTRF, 30 min; control for the full effect not named in the record; Potency, µM (series often up to 76.9 µM), without a hit: top-dose activation (cAMP increase), hits mostly activators; AID 624287; 340,000 compounds, 0.13% hits; active = well fitted activation curve with a large enough effect; inconclusive = small, poorly fitted or top-dose-only effect, or another doubt; inactive = no such curve, though single readings can be large or run the other way; cell line not stated here;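 further: phosphodiesterase inhibitor Ro 20-1724 added with compounds to block cAMP breakdown; potency means the concentration at half of the fitted maximal effect; nearly all actives have a fitted effect of over 60% in size; about a fifth of the inactives were tested at one dose only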
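Cells in DMEM/10% FBS with G418 were pretreated with compounds in DMSO plus […] (300 uM stock) for 30 min at 37C. cAMP was measured by HTRF (cAMP-d2 plus anti-cAMP antibody-K) after 30 min at room temperature.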
The depositor's hits bear a star; ? = inconclusive; / = not tested or not shown; [ ] = remark or other dose.

molecule,Menin-MLL FL inh,gsp ag,CtBP-E1A blk,gsp antag,Sfp PPTase inh,ClpP mod,TRPV1 potentiator
Nc1nnc(Cc2ccccc2F)s1,-0.1,-2%,10,6%,17%,/,3
CCCC(=O)N(Cc1cc(=O)[nH]c2ccccc12)c1ccc(OC)cc1,-4.2,5%[15.4 µM],4,-7%,-2%,/,20
CC(C)CNc1nc(SCC(=O)Nc2ccccc2)nc(N2CCOCC2)n1,-4.2,-32%[15.4 µM],4,-39%,15%,0.5%,13
CC(C)CNC(=O)C1c2ccccc2Oc2ccccc21,2.9,15%[15.4 µM],-13,/,6%,/,-2
CC(=O)Cc1cc(O)c2ccccc2c1OC(=O)c1ccccc1,1.0,-8%,-8,0%,8%,/,6
O=C(COC(=O)c1ccccc1SCC(=O)N1CCCC1)Nc1ccccc1C(F)(F)F,/,-8%[15.4 µM],2,-2%,6%,1.5%,-2
Cc1cc(C)c(NC(=O)C(C)N2CCCCCC2)c(C)c1 (centres undefined),2.0,-22%,/,1%,10%,0.4%,11
CC(Sc1nnc(COc2ccccc2)n1Cc1ccccc1)C(=O)O (centres undefined),-4.6,-12%,9,0%,-6%,/,6
O=C(Nc1nnc(-c2ccccc2Cl)o1)c1nc2ccccc2s1,3.5,-15%,-7,-9%,-12%,0.5%,-21
CCOC(=O)c1cc(C#N)c(SC)nc1-c1ccccc1,2.9,8%,17,-5%,-14%,-7.3%,-16
COc1ccc(Br)cc1/C=N/NC(=O)CN1CCN(Cc2ccccc2)CC1,3.5,3%,-13,-11%,4%,/,9
Cc1ccc(/C=N\NC(=O)c2ccc3c(c2)OCO3)o1,/,-1%,-3,0%,-26%,-4.3%,-25
COc1cccc(CNC(=O)CCCn2ccc3cc(S(=O)(=O)N4CCCC4)ccc32)c1,0.2,-4%,0,-16%,-5%,0.4%,-2
CCOC(=O)c1ccc(Cn2c(-c3ccccc3)nnc2-c2ccccc2)o1,-0.7,0%,8,-17%,-9%,-1.6%,-19
COc1ccc(NC(C)=O)cc1NC(=O)CN1CCN(C(=O)c2ccco2)CC1,0.1,-14%,0,0%,11%,2.1%,/
CCOC(=O)c1cc(C)[nH]c1C,3.7,21%[15.4 µM],-24,5%,6%,/,1
CC(C)CC(=O)O/N=C1\C(=O)N(c2ccccc2)c2ccccc21,2.7,-43%[inhibitor],13,7%,11%,-18%,15
CC(=O)c1ccc(NC(=O)c2cn(-c3ccccc3)nc2-c2ccncc2)cc1,3.6,-66%[inhibitor],-2,-2%,-10%,-7.0%,-7
O=C(COC(=O)c1cc[n+]([O-])cc1)NCc1ccccc1Cl,-5.3,7%[15.4 µM],12,2%,8%,/,5
COc1ccc(/C=N/NC(=O)c2[nH]c3ccc(Cl)cc3c2-c2ccccc2)c(C(=O)O)c1OC,-2.9,-12%[15.4 µM],?,11%,13%,0.5%,11
O=C(CSc1nc(O)cc(=O)n1-c1ccccc1)Nc1ccccn1,1.8,-29%,5,4%,?,0.3%,0
CC(=O)c1cccc(-c2ccc(CN3C(CC(C)C)C(=O)N(Cc4cn(CC5CCCCC5)nn4)CCS3(=O)=O)cc2)c1 (centres undefined),/,/,-13,-7%,/,0.1%,/
CCCCCCc1ccc(-c2ncc(N)cn2)cc1,2.0,-34%[inhibitor],0,-6%,24%,32µM*,2
COc1cc(/C=C/C(=O)OCC(=O)Nc2ccc(NC(C)=O)cc2)cc(S(=O)(=O)N2CCc3ccccc32)c1OC,-1.0,?,-8,-3%,9%,/,1
[O-][n+]1onc2c3cc(-c4ccccc4)nnc3ccc21,3.0,4%,2,-10%,6%,-3.7%,20
Cc1cc(NC(=O)c2ccc(F)cc2F)n(-c2nc3ccccc3[nH]2)n1,0.6,18%,4,5%,1%,-16%,-7
O=C(CSc1ccc2nnc(-c3ccc(Cl)cc3)n2n1)N1CCCc2ccccc21,-2.5,24%,2,7%,-6%,?,6
CN(c1ccccc1)S(=O)(=O)c1ccc(Cl)c(C(=O)OCC(=O)c2c(N)n(C)c(=O)n(C)c2=O)c1,/,33%,-10,-2%,/,-5.9%,/
O=C(O)/C=C\C(=O)Nc1ccc(N2CCN(c3ccc(F)cc3)CC2)cc1,-2.7,2%,-15,1%,?,/,19
COc1ccc(/C=C2\Oc3cc(OCC(=O)N4CCC[C@H]4C(=O)O)ccc3C2=O)c(OC)c1,?,/,4,-4%,12%,-3.2%,7
CC(=O)NCc1nc2ccccc2n1Cc1ccccc1F,1.2,?,-1,10%,10%,0.0%,-6
COc1cccc(-c2nc(CS(=O)(=O)CC(=O)NCc3ccccc3OC)c(C)o2)c1,3.7,-57%[inhibitor],6,-25%,11%,-15%,-4
O=C1c2oc3ccccc3c(=O)c2C(c2ccccn2)N1Cc1ccccc1 (centres undefined),-2.7,1%,7,-1%,1%,?,-7
O=C(COC(=O)[C@H](Cc1ccccc1)NC(=O)c1cccs1)NC1CC1,4.6,21%,14,-2%,-6%,-6.9%,16
c1ccc(OCc2nnc3n2N=C(c2ccccc2)CS3)cc1,3.1,2%,2,-25%,16µM*,0.0%,12
Cc1ccc(Cn2nnc3c(=O)n(CC(=O)NCc4ccco4)cnc32)cc1,-0.6,-27%,-7,10%,3%,-1.0%,11
CNC(=O)C1Cc2ccccc2CN1S(=O)(=O)c1ccc(OC)c(OC)c1 (centres undefined),3.7,1%[15.4 µM],5,18%,12%,-0.3%,?
C[C@@H]1CN([C@@H](C)CO)C(=O)Cc2cc(NC(=O)C3CCCCC3)ccc2O[C@H]1CN(C)S(=O)(=O)c1ccccc1,/,-7%,0,-7%,/,0.1%,/
O=C(COC(=O)CCN=C1NS(=O)(=O)c2ccccc21)NC1CCCCCCC1,2.3,1%,6,-33%,0%,-0.5%,25
CCOC(=O)N1CCN(S(=O)(=O)c2cn(C)c(=O)n(C)c2=O)CC1,/,-1%[15.4 µM],10,15%,18%,1.4%,-5
COC(=O)Nc1nc(-c2ccccc2)c(C(=O)c2ccc(Cl)cc2)s1,2.4,0%,-3,13%,-1%,0.5%,-10
COc1cc(N)c(Cl)cc1C(=O)OCC(=O)N1CCCCCC1,/,3%,1,21%,/,-2.5%,6
O=C(Oc1ccc(N2C(=O)C3C4CCC(C4)C3C2=O)cc1)c1ccco1 (centres undefined),/,8%,2,4%,2%,-0.5%,-3
OCC1CCCN(C(=S)Nc2ccc(OC(F)F)cc2)C1 (centres undefined),1.6,-1%[15.4 µM],12,19%,16%,0.5%,-3
CC(=O)NCCNC(=O)C1CCCCN1S(=O)(=O)c1ccccc1 (centres undefined),-2.3,-2%[15.4 µM],20,/,6%,/,5
Cc1nc2ccc(Cl)cc2c(-c2ccccc2)c1CC(=O)O,2.0,11%,-4,2%,7%,-2.8%,5
O=C1OCCN1C(=O)[C@H]1[C@H](c2ccc(Cl)cc2)C(c2ccccc2)=NN1c1ccc(Br)cc1,?,/,33,-10%,9%,4.6%,/
Cc1ccc(N(CC(=O)N2CCc3ccccc3C2)S(C)(=O)=O)cc1,1.8,9%[15.4 µM],4,-2%,17%,-1.7%,4
CC(=O)C[C@@H](O)CC(=O)[C@H]1OC(=O)[C@H](C)CCCCc2ccccc21,/,/,4,-2%,/,0.2%,/
NS(=O)(=O)c1ccc(NC(=O)N[C@@H](Cc2ccccc2)C(=O)O)cc1,-1.3,9%,9,8%,10%,0.4%,1
CCOc1ccccc1CNC(=O)c1nn(CC)cc1[N+](=O)[O-],6.3,-3%,-17,-3%,-2%,-2.2%,-6
COc1ccc(S(=O)(=O)N(C)CC(=O)Nc2ccc3c(c2)OCO3)cc1,-1.5,-5%,14,0%,7%,1.4%,-11
COc1ccccc1C(=O)NCCC(=O)NCC1COc2ccccc2O1 (centres undefined),/,18%,/,8%,/,-2.8%,21
Cc1nnc(SCC(=O)NC(=O)NCCC(C)C)s1,-2.2,-21%,4,9%,10%,/,6
CC(C)Oc1ccc(/C=N/NC(=O)C2CCCN2S(=O)(=O)c2ccc(Cl)cc2)cc1 (centres undefined),-2.3,-30%,0,-6%,11%,85%,25
COc1ccccc1C1CCN(Cc2c(C)[nH]c3ccccc23)CC1,5.5,13%,-9,8%,0%,/,/
Nn1c(Cc2cccc3ccccc23)nnc1SCCOc1ccc(F)cc1,-0.8,-4%,2,?,-7%,0.4%,-11
CC(/C=N/NC(=O)c1cccs1)=C\c1ccccc1,1.0,17%[15.4 µM],-9,-12%,-10%,/,-13
CCCn1c(=O)c(C(=O)NCc2ccc3c(c2)OCO3)c(O)c2ccccc21,0.2,10%,/,7%,16%,?,3
O=C(Cn1nc(-c2ccccc2)ccc1=O)NCc1ccc2c(c1)OCO2,3.5,-38%[inhibitor],7,5%,14%,1.1%,-8

(list continues)
molecule,Menin-MLL FL inh,gsp ag,CtBP-E1A blk,gsp antag,Sfp PPTase inh,ClpP mod,TRPV1 potentiator
c1csc(CNc2ncnc3ccc(-c4ccc5c(c4)OCO5)cc23)c1,-2.6,/,/,/,-7%,/,-21
CCOC(=O)c1ccc(S(=O)(=O)N2CCN(C(C)=O)CC2)cc1,-1.2,0%[15.4 µM],0,-8%,19%,1.3%,7
O=C(CCS(=O)(=O)c1ccccc1)N(CCCN1CCOCC1)c1nc2c(F)cccc2s1,/,-5%,-1,1%,/,-1.4%,10
O[C@H]1C[C@H](c2ccc(Cl)cc2)N(CC2CCCCC2)C[C@@H]1n1cc(-c2ccc(F)cc2)nn1,/,-38%[inhibitor],7,/,/,-3.3%,/

Exported field by field: entries from further up
c1csc(CNc2ncnc3ccc(-c4ccc5c(c4)OCO5)cc23)c1
- Menin-MLL FL inh = -2.6
- gsp ag = /
- CtBP-E1A blk = /
- gsp antag = /
- Sfp PPTase inh = -7%
- ClpP mod = /
- TRPV1 potentiator = -21

CCOC(=O)c1ccc(S(=O)(=O)N2CCN(C(C)=O)CC2)cc1
- Menin-MLL FL inh = -1.2
- gsp ag = 0%[15.4 µM]
- CtBP-E1A blk = 0
- gsp antag = -8%
- Sfp PPTase inh = 19%
- ClpP mod = 1.3%
- TRPV1 potentiator = 7
